Assay outcomes deposited in PubChem BioAssay by National Center for Advancing Translational Sciences (NCATS).
NS1 inh: qHTS Assay for Inhibitors of Influenza NS1 Protein Function; hit rate 0.4% among 270,000; S. cerevisiae slowed by influenza A NS1, growth recovery by OD600; AID 2326, 2010; Potency, µM (doses to about 46.1 µM), for inactives: at the top dose activity, positive = more growth; note: actives are rising curves; nearly all actives have a fitted effect of over 50% in size
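Compounds were scored for reversing the slow growth caused by influenza A NS1 in S. cerevisiae, measured by optical density at 600 nm. Assay medium contained 2% galactose at pH 6.0; NS1-free yeast of the same strain were the positive control.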
SARS PLP yeast: qHTS of Yeast-based Assay for SARS-CoV PLP; hit rate 0.19% among 330,000; S. cerevisiae expressing SARS-CoV PLpro, growth rescue; control for the full effect not named in the record; Potency, µM (titrated, usually from 32.9 µM), for inactives: at the highest dose activity, positive = growth rescue; AID 485353, 2010; note: 0% is about no effect; nearly all actives have a fitted effect of over 55% in size; growth read by luminescence after 48 h
* marks the source's active call; other numbers are inactive results; ? = inconclusive; & = joins results of further samples; [ ] = remark or other dose. Calls come from the whole dose curve; as a rule, active means well fitted rising curve with a large enough effect; inconclusive means small, poorly fitted or top-dose-only effect; inactive means no such curve, though single readings can be large or run the other way. Potency is the fitted concentration of half-maximal effect. Only part of the results is shown; count on the stated rates, not on these rows.

Cc1ccc(-n2[nH]c(C)c(C=Nc3ccc(S(=O)(=O)Nc4nccs4)cc3)c2=O)c(C)c1
  NS1 inh: -1%	SARS PLP yeast: 0%

COc1ccccc1N/C=C1/Sc2cc(Cl)ccc2NC1=O
  NS1 inh: 0%	SARS PLP yeast: 0%

COc1ccc(CNC(=O)C2CCC(CNc3nc(=S)[nH]c4ccccc34)CC2)cc1 (stereo not drawn)
  NS1 inh: 4%	SARS PLP yeast: 1%

Cn1c(=O)c(C=Nc2ccccc2)c(O)c2ccccc21
  NS1 inh: -52%	SARS PLP yeast: -4%

O=C1NC(=S)N(c2ccc(F)cc2)C(=O)/C1=C/c1ccco1
  NS1 inh: ?	SARS PLP yeast: -1%

Cc1ccc(NC(=O)Cn2c(O)c(N=NC(=O)c3cc([N+](=O)[O-])ccc3O)c3ccccc32)cc1
  NS1 inh: 6%	SARS PLP yeast: 2%

O=C(O)c1cccc(-c2ccc(/C=N/n3cnc4sc5c(c4c3=O)CCCC5)o2)c1
  NS1 inh: 1%	SARS PLP yeast: 0%

COc1ccc(NC(=O)COC(=O)c2ccc(S(=O)(=O)N(C)c3ccccc3OC)cc2)c(OC)c1
  NS1 inh: 7%	SARS PLP yeast: -2%

O=C(Nc1nc2ccccc2s1)Nc1ccc([N+](=O)[O-])cc1Cl
  NS1 inh: 3%	SARS PLP yeast: 1%

O=c1oc2ccc(F)cc2c2c1C1O[C@](c3ccsc3)(Cc3c1ccc1ccccc31)O2
  NS1 inh: -3%	SARS PLP yeast: 3%[6.58 µM]

CC1=C(C)Cc2c(OC(=O)c3ccccc3)ccc(OC(=O)c3ccccc3)c2C1
  NS1 inh: 5%	SARS PLP yeast: -1%

CCN(CC)CCCNCC(=O)Nc1ccc(OC)c(Cl)c1
  NS1 inh: 2%	SARS PLP yeast: -1%

COc1ccccc1CCNC(=O)c1cc(-c2ccccn2)nc2ccc(Br)cc12
  NS1 inh: -1%	SARS PLP yeast: 0%

CCOC(=O)c1cc2c(ccn2-c2ccc(F)cc2)n1CC(=O)NC(C)(C)C
  NS1 inh: 1%	SARS PLP yeast: -1%

CCCOc1ccc(-c2nc(-c3ccc(N)cc3)cs2)cc1
  NS1 inh: 13µM*	SARS PLP yeast: 0%

NC(=O)c1ccsc1N
  NS1 inh: 5%	SARS PLP yeast: 0%

Nc1c(C(=O)c2ccccc2O)cnn1-c1ccc(S(=O)(=O)N2CCOCC2)cc1[N+](=O)[O-]
  NS1 inh: 8%	SARS PLP yeast: 0%

C[C@@H]1CC=C[C@H]2[C@H]1C(=O)N(Cc1ccccc1)[C@H]2c1ccc(F)c(Br)c1
  NS1 inh: -114%	SARS PLP yeast: -20%

Cc1cc(NC(=O)C(C)C)ncc1NC(=O)c1ccco1
  NS1 inh: 10%	SARS PLP yeast: 2%

O=C(N/N=C/c1cccc(Oc2ccccc2)c1)c1ccccc1F
  NS1 inh: -68%	SARS PLP yeast: -9%

COC(=O)C1=C(C)OC(N)=C(C#N)C1c1cc2cccc(C)c2nc1Cl (stereo not drawn)
  NS1 inh: -1%	SARS PLP yeast: -2%

COC(=O)C1=C(C)N(Cc2ccccc2)C(=NCC(C)C)N[C@H]1c1ccc(Br)cc1
  NS1 inh: 10%	SARS PLP yeast: ?

Cc1ccnc(NC(=O)c2ccc(Cl)c(NC(=O)CCc3ccccc3)c2)c1
  NS1 inh: -3%	SARS PLP yeast: 0%

O=C1Nc2cc(C(=O)N3CCN(c4ccccc4F)CC3)ccc2NC1CSCc1ccccc1F (stereo not drawn)
  NS1 inh: ?	SARS PLP yeast: 29%

CN1CCN(c2nc(-c3ccc(Cl)c(Cl)c3)nc3ccccc23)CC1
  NS1 inh: 8%	SARS PLP yeast: 0%

O=C(CCN1C(=O)/C(=C\c2ccccc2F)SC1=S)Nc1ccc(C(=O)O)c(O)c1
  NS1 inh: ?	SARS PLP yeast: -3%

CCOC(=O)Nc1ccc2c(c1)nc(CN1CCCCC1)n2C
  NS1 inh: -2%	SARS PLP yeast: 0%

Cn1c2ccccc2c(=O)c2c(=O)n(Cc3ccco3)c(-c3ccc(Cl)cc3Cl)nc21
  NS1 inh: 0%	SARS PLP yeast: 0%

CCOc1ccccc1NC(=O)NC(C)c1ccc2c(c1)OCO2 (stereo not drawn)
  NS1 inh: 7%	SARS PLP yeast: 4%

COc1ccccc1CNCC(c1ccccc1)c1ccccc1
  NS1 inh: 17%	SARS PLP yeast: 1%

Laid out differently: results already given
Below each compound: NS1 inh | SARS PLP yeast
- NC(=O)c1ccsc1N
 : 5% | 0%
- COC(=O)C1=C(C)OC(N)=C(C#N)C1c1cc2cccc(C)c2nc1Cl (stereo not drawn)
 : -1% | -2%

Following part
COc1ccc([N+](=O)[O-])cc1NS(=O)(=O)c1ccc(Cl)c(C(=O)Nc2sc3c(c2C#N)CCCCC3)c1
  NS1 inh: 0%	SARS PLP yeast: 1%

C#CCOCCOCCOCCNc1nc(N2CCN(C(=O)[C@H](CCC(=O)O)n3cc(C(N)CO)nn3)CC2)nc(N2CCN(C(=O)[C@H](CCCCN)n3cc(C(N)CC(C)C)nn3)CC2)n1 (stereo partly drawn)
  NS1 inh: -12%	SARS PLP yeast: -2%

Cc1ccc(-c2csc3nc4c5ccccc5c(NCCCN5CCOCC5)nn4c(=O)c23)cc1
  NS1 inh: 5%	SARS PLP yeast: 0%

CCc1ccc(Nc2nnc(SCC(=O)c3ccc4c(c3)NC(=O)CO4)s2)cc1
  NS1 inh: ?	SARS PLP yeast: 1%

COc1ccc(C2CC(=O)c3cnc(N4CCc5ccccc54)nc3C2)c(OC)c1 (stereo not drawn)
  NS1 inh: 2%	SARS PLP yeast: 1%

COc1ccc(CNC(=O)c2ccc(Br)cc2)cc1
  NS1 inh: -4%	SARS PLP yeast: -1%

NC(=O)Cn1nc2sc3ccccc3n2c(=O)c1=O
  NS1 inh: 6%	SARS PLP yeast: -1%

COc1ccccc1N(CCN1C(=O)c2cccc3cccc(c23)C1=O)C(=O)c1ccncc1
  NS1 inh: 1%	SARS PLP yeast: 0%

Cc1cc(OCCN2CC2)c2ccccc2n1
  NS1 inh: 6%	SARS PLP yeast: -1%

COCc1cc(C)nc(N/N=C/c2ccc(-c3ccc(C(=O)O)c(Cl)c3)o2)c1C#N
  NS1 inh: 7%	SARS PLP yeast: -1%

O=C(NCCN1CCOCC1)c1cccn2c(=O)c3c4c(sc3nc12)CCCC4
  NS1 inh: -2%	SARS PLP yeast: 1%

Cc1ccc(OCC(=O)NNC(=S)NC(=O)C2CC2)c(C)c1
  NS1 inh: -105%	SARS PLP yeast: -20%

Cn1nccc1C(=O)N1CCCC(N2CCN(c3cccc(C(F)(F)F)c3)CC2)C1 (stereo not drawn)
  NS1 inh: -27%	SARS PLP yeast: 18%

CC(=O)Nc1cccc(-c2csc(Nc3ncccn3)n2)c1
  NS1 inh: 8%	SARS PLP yeast: -5%

N#Cc1cc([N+](=O)[O-])ccc1NC(=O)COC(=O)C12CC3CC(CC(C3)C1)C2
  NS1 inh: 1%	SARS PLP yeast: 1%

O=C(COc1ccc2ccccc2c1)Nc1cccc2c1C(=O)NC2=O
  NS1 inh: 5%	SARS PLP yeast: 0%

CC1(C)CC(=O)C2=C(C1)O[C@@]1(CCCCN3C(=O)c4ccccc4C3=O)Cc3ccccc3C2O1
  NS1 inh: -8%	SARS PLP yeast: 1%[6.58 µM]

O=C1C(=O)N(CCN2CCOCC2)C(c2cccnc2)/C1=C(/O)c1ccccc1 (stereo not drawn)
  NS1 inh: 4%	SARS PLP yeast: -2%

CC(C)Cn1c(N)c(-c2nc(C(C)C)c(C(=O)c3ccccc3F)s2)c(=O)n(C)c1=O
  NS1 inh: 0%	SARS PLP yeast: 0%

CCOC(=O)CN(Cc1ccccc1)C(=O)OC(C)(C)C
  NS1 inh: -14%	SARS PLP yeast: 3%

O=[N+]([O-])c1ccc(/C=N/Nc2nc(N3CCOCC3)nc(N3CCOCC3)n2)cc1
  NS1 inh: 0%	SARS PLP yeast: 0%

COc1ccc(-c2cc(C(F)(F)F)c(C#N)c(SCC(=O)O)n2)cc1OC
  NS1 inh: 1%	SARS PLP yeast: 5%

c1ccc(CCNc2ccccc2)cc1
  NS1 inh: 2%	SARS PLP yeast: 0%

COc1ccc(-c2nn(C)c(=O)c3ccccc23)cc1CNC(=O)NC1CCCCC1
  NS1 inh: 6%	SARS PLP yeast: 1%

CCN(CC)C(C)C#CCC(c1ccccc1)c1ccccc1 (stereo not drawn)
  NS1 inh: -13%	SARS PLP yeast: -10%

C#CCOCCOCCOCCNc1nc(N2CCN(C(=O)[C@H](CCCCN)n3cc([C@@H](N)CO)nn3)CC2)nc(N2CCN(C(=O)[C@H](Cc3cc4ccccc4[nH]3)n3cc([C@@H](N)Cc4ccc(O)cc4)nn3)CC2)n1
  NS1 inh: 0%	SARS PLP yeast: -2%

Cc1cc(=O)c2cc3nc(-c4cccnc4)oc3c(Br)c2o1
  NS1 inh: -3%	SARS PLP yeast: -3%

Cc1cc(C)n2nc(CCCCc3nc4nc(C)cc(C)n4n3)nc2n1
  NS1 inh: 0%	SARS PLP yeast: -1%

CCOc1cc(/C=C2\C(=O)N(c3cccc(C(=O)O)c3)N=C2C(F)(F)F)ccc1OCC(=O)Nc1ccccc1OC
  NS1 inh: 25%	SARS PLP yeast: -7%

CC1(C)CC(=O)C2=C(C1)O[C@@]1(CCCCN3C(=O)c4ccccc4C3=O)Cc3cc(C#N)ccc3C2O1
  NS1 inh: 8%	SARS PLP yeast: 2%[6.58 µM]

Whole records from above. Order of values: NS1 inh	SARS PLP yeast
Entry for CN1CCN(c2nc(-c3ccc(Cl)c(Cl)c3)nc3ccccc23)CC1 = 8%	0%
Entry for Cc1ccnc(NC(=O)c2ccc(Cl)c(NC(=O)CCc3ccccc3)c2)c1 = -3%	0%
Entry for O=c1oc2ccc(F)cc2c2c1C1O[C@](c3ccsc3)(Cc3c1ccc1ccccc31)O2 = -3%	3%[6.58 µM]
Entry for Cn1c(=O)c(C=Nc2ccccc2)c(O)c2ccccc21 = -52%	-4%

A second format for some results above.
The line under a structure holds: NS1 inh	SARS PLP yeast
- CCOC(=O)CN(Cc1ccccc1)C(=O)OC(C)(C)C
 : -14%	3%
- O=[N+]([O-])c1ccc(/C=N/Nc2nc(N3CCOCC3)nc(N3CCOCC3)n2)cc1
 : 0%	0%

For convenience, part of the list above:
O=C(COc1ccc2ccccc2c1)Nc1cccc2c1C(=O)NC2=O
  NS1 inh: 5%	SARS PLP yeast: 0%

CC1(C)CC(=O)C2=C(C1)O[C@@]1(CCCCN3C(=O)c4ccccc4C3=O)Cc3ccccc3C2O1
  NS1 inh: -8%	SARS PLP yeast: 1%[6.58 µM]

Next compounds follow:
CCOC(=O)CC1C(=O)NCCN1c1nc2ccc(C)cn2c(=O)c1/C=C1\SC(=S)N(C(C)CC)C1=O (stereo not drawn)
  NS1 inh: 6%	SARS PLP yeast: -1%

N#Cc1ccc2c(c1)C[C@]1(CCCCN3C(=O)c4ccccc4C3=O)OC3=C(C(=O)OC4(CCCCC4)C3)C2O1
  NS1 inh: -5%	SARS PLP yeast: -3%[6.58 µM]

COc1ccc(-c2cn3cccnc3n2)cc1NC(=O)C(C)C
  NS1 inh: 2%	SARS PLP yeast: 8%

Cc1cc(/C=N/Nc2nc(N)ncc2[N+](=O)[O-])c(C)n1-c1ccccc1F
  NS1 inh: 4%	SARS PLP yeast: -2%

C[C@H]1[C@H](C)CC[C@]2(C)CC[C@]3(C)C(=CC[C@@H]4[C@@]5(C)CC[C@@H](O)[C@](C)(C(=O)O)[C@@H]5CC[C@]43C)[C@H]12
  NS1 inh: -7%	SARS PLP yeast: 1%

COc1ccc(C(=O)CCS(=O)(=O)c2ccc(F)cc2)cc1OC
  NS1 inh: 9%	SARS PLP yeast: -1%

CCN1C(=NCCN2CCOCC2)N[C@@H](CCc2ccccc2)C(C(=O)OC)=C1C
  NS1 inh: -6%&5%	SARS PLP yeast: ?

CCOC(=O)c1cc(NC(=O)COC)ccc1O
  NS1 inh: -2%	SARS PLP yeast: -1%

CCCC[C@]12Cc3cc(C#N)ccc3C(O1)c1c(cc(-c3ccccc3)oc1=O)O2
  NS1 inh: ?	SARS PLP yeast: -2%[6.58 µM]

O=C(OCc1cccc([N+](=O)[O-])c1)c1cc(=O)[nH]c2ccccc12
  NS1 inh: 1%	SARS PLP yeast: 1%

CCCn1c(=N)c(C#N)cc2c(=O)n3cccc(C)c3nc21
  NS1 inh: -1%	SARS PLP yeast: -1%

COc1cc(/C=N/O)ccc1OCc1ccc(Cl)cc1
  NS1 inh: -31%	SARS PLP yeast: -1%

CC1(C)CC(NS(=O)(=O)c2ccc(S(N)(=O)=O)cc2)CC(C)(C)N1
  NS1 inh: 2%	SARS PLP yeast: 1%

CCc1ccc(CNC(=O)c2ccc3nc(C4CCCCC4)oc3c2)nc1
  NS1 inh: -43%	SARS PLP yeast: -10%

Cc1nn(C)c(C)c1NC(=O)c1cnn2c(C(F)F)cc(-c3ccccc3)nc12
  NS1 inh: 0%	SARS PLP yeast: -2%

Cn1c(=O)c2c(nc(SCC(=O)c3ccccc3F)n2C)n(C)c1=O
  NS1 inh: 8%	SARS PLP yeast: 1%

O=C1N=C(C=c2ccc(=Cc3[nH]c(=O)[nH]c3O)cc2)C(=O)N1
  NS1 inh: ?	SARS PLP yeast: 1%

Cc1nnc(N2C(=O)C(=O)/C(=C(/O)c3ccc4c(c3)OCCO4)C2c2ccc([N+](=O)[O-])cc2)s1 (stereo not drawn)
  NS1 inh: ?	SARS PLP yeast: -3%

CCOCC(=O)Nc1cc(C(=O)NCCC(C)C)ccc1Cl
  NS1 inh: 4%	SARS PLP yeast: -1%

CCOc1ccc(NC(=O)Nc2cc(C(C)C)ccc2C)cc1
  NS1 inh: -3%	SARS PLP yeast: 0%
